Arbovirus inh: arbovirus infection inhibition; inhibition, % at 10 µM; arbovirus infection cell-based antiviral screen; actives 0.37% (n = 200,000); AID 1251;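 active means inhibition from about 30%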;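 further: bluetongue infection of BSR cells; cell survival read as ATP light after 72 h; 0% = infected wells without compound and 100% = uninfected wells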
YopH inh: inhibitors of Yersinia enterocolitica YopH tyrosine phosphatase; fluorescence Ex485/Em525; inhibition, %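 (about 10 µM by stock and volumes)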; actives 0.16% (n = 140,000);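 active means inhibition of 50% or more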;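 further: controls were vehicle for no effect and minimum signal wells for full effect; inactives centre near -20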
Mtb bLac sens: beta-lactam sensitization of Mtb H37Rv; M. tuberculosis H37Rv growth with meropenem, percent inhibition; hits of this screen are not shown here; inhibition, % at 25 µM; actives 0.27% (n = 330,000); AID 434955;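 active means about 74% or more and at least 40 points above the plate without the antibiotic, then above 30% in a dose series; inconclusive means first-round hits that could not be retested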;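 further: growth measured after seven days incubation then overnight dye step; 0% = bacteria only wells and 100% = bacteria with antibiotic; twin plates without the antibiotic show which effects depend on it; some results filed as inactive read as strong as hits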
RecA intein inh: blocks M. tuberculosis RecA intein splicing | P9WHJ3 | cell-free RecA intein splicing, fluorescence | inhibition, %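 (about 9 µM by stock and volumes)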 | actives 0.75% (n = 290,000); in the data active means inhibition above about 30%; inconclusive means no clear call, values can overlap the other calls;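 further: 0% = vehicle wells and 100% = reference inhibitor control wells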
Target sequence (P9WHJ3 whole entry, looked up): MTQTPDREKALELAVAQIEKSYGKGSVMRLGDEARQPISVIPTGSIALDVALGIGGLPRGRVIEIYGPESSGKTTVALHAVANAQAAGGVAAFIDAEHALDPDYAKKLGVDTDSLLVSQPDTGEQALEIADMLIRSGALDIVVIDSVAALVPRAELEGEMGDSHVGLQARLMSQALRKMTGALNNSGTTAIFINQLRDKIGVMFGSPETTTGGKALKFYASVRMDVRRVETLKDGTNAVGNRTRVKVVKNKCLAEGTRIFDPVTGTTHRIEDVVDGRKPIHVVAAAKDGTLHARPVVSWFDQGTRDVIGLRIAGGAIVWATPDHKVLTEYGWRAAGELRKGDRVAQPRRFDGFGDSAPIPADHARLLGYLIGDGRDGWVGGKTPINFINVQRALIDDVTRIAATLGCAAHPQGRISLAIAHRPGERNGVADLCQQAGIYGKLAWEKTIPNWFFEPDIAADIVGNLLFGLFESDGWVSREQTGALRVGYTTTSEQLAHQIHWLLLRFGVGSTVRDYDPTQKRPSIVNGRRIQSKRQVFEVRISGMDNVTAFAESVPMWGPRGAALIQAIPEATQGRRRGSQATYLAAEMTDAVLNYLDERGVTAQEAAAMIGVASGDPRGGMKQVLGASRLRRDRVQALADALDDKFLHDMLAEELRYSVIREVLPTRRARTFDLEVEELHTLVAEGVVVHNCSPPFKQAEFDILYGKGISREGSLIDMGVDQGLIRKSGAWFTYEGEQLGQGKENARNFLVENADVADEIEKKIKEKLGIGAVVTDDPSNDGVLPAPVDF
Mtb growth: M. tuberculosis H37Rv growth inhibitors, H37Rv strain (AID 1626); M. tuberculosis H37Rv growth inhibition; higher % means a stronger effect; actives 0.95% (n = 220,000); one-dose inhibition, % at 10 µM; IC50 in µM for titrated hits;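 active means confirmed in a dose series; inconclusive means inhibition above 80% but not taken into the dose series; inactive means below 80% or under 30% at every dose of the series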;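 further: bacteria incubated seven days before Alamar blue readout; 0% = bacteria only wells and 100% = bacteria with antibiotic wells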
Arbovirus inh repeat: recorded beside Arbovirus inh, whose call it bears; inhibition, %; measured here: 10K subset replicate screen; many hits read low in the repeat;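 first of two repeat runs on a subset; 0% = infected and 100% = uninfected wells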
* hit, by the source's call; ? = inconclusive; nt = no result given. Not all compounds are listed; count on the stated rates, not on these rows.

SMILES | Arbovirus inh | YopH inh | Mtb bLac sens | RecA intein inh | Mtb growth | others
CC(=O)c1cccc(CN2CCN(C(C)C)C(CCO)C2)c1 (centres undefined) | -2 | nt | -3 | 2.9 | -4%
NC(=O)COc1ccc(-n2cnnn2)cc1 | -4 | nt | -1 | 4.8 | -14%
O=C(CSc1n[nH]c(-c2cccnc2)n1)Nc1ccccc1 | 5 | 31 | -12 | -1.2 | -3%
Cc1ccc(-c2n[nH]c(=S)n2/N=C/c2c(C)[nH]n(-c3ccccc3)c2=O)cc1 | -1 | nt | -1 | 2.9 | 6%
COc1ccc(N2CCN(C(=O)c3cccc(NC(=O)c4ccco4)c3)CC2)cc1 | nt | nt | -5 | -5.7 | nt
O=P(CCNCc1ccco1)(c1ccccc1)c1ccccc1 | 12 | -6 | 4 | nt | 2%
O=Cc1cn(CCOc2ccccc2)c2ccccc12 | nt | nt | -5 | 2.3 | nt
CC(C)C(=O)Nc1nnc(CCc2nnc(NC(=O)C(C)C)s2)s1 | -4 | -26 | -4 | -0.1 | -11%
CCOc1ccc(Nc2ncnc(N)n2)cc1 | 12 | -53 | -1 | 11 | 5% | Arbovirus inh repeat=-3
COc1ccc(CNCc2c(C(=O)N(C)C)nc3ccc(Cl)cn23)c(OC)c1 | -1 | nt | -10 | 8.7 | 0%
CCCN(CCC)C(=O)Cn1c(=O)n(CCCCC(=O)NC2CCCC2)c(=O)c2ccccc21 | 2 | -18 | -4 | -8.6 | -7%
COc1ccccc1-n1c(=O)c2c3c(sc2n2c(SC)nnc12)CCC3 | nt | -22 | -2 | -0.2 | -2%
O=S(=O)(/N=C(\c1ccccc1)N1CCOCC1)c1ccc(Cl)cc1 | 7 | -23 | 1 | -0.1 | 6%
Cc1csc(NC(=O)Cn2nc(C)c([N+](=O)[O-])c2C)n1 | 4 | nt | -2 | -3.7 | 3%
COc1cccc(-c2cc(C(F)(F)F)nc(-n3cncn3)n2)c1 | -2 | -32 | -4 | 1.4 | 1%
Cn1c(CCC(=O)Nc2ccccc2F)nnc1SCC(=O)Nc1ccccc1Cl | -1 | nt | -8 | 0.4 | 4%
COc1cc(C(=O)N2C(=O)CCC2=O)cc(OC)c1OC | nt | nt | 0 | 0.2 | nt
CCC(C(=O)NCCC1=CCCCC1)c1ccccc1 (centres undefined) | 6 | -13 | -9 | 1.9 | 1%
COc1ccccc1NC(=O)CN(c1ccccc1OC)S(=O)(=O)c1ccccc1 | nt | nt | -1 | 8.0 | nt
C/C(=N\NC(=S)NC(C)C)c1ccccc1 | nt | nt | 92 | 0.3 | 3%
COc1ccc2[nH]c3c(c2c1)CCN1C(=O)N([C@@H](C)C(=O)NCc2ccco2)C(=O)[C@]31C | nt | nt | 2 | 1.3 | nt
Cc1ccc(C(=O)O/N=C(\N)Cc2cccs2)cc1[N+](=O)[O-] | nt | nt | -10 | 2.1 | nt
Cc1cccc(NC(=O)C2CCCN(S(=O)(=O)c3cccs3)C2)c1C (centres undefined) | nt | nt | 0 | -0.8 | nt
CNC(=S)NNC(=O)COc1ccccc1C | 15 | -48 | 3 | -0.3 | -5%
Cc1ccc(C(=O)N/N=C2\CCSC2)cc1[N+](=O)[O-] | -9 | 5 | 1 | -0.1 | -5%

6 records drawn at random from those above, as already listed:
SMILES | Arbovirus inh | YopH inh | Mtb bLac sens | RecA intein inh | Mtb growth | others
CCOc1ccc(Nc2ncnc(N)n2)cc1 | 12 | -53 | -1 | 11 | 5% | Arbovirus inh repeat=-3
CC(=O)c1cccc(CN2CCN(C(C)C)C(CCO)C2)c1 (centres undefined) | -2 | nt | -3 | 2.9 | -4%
Cc1csc(NC(=O)Cn2nc(C)c([N+](=O)[O-])c2C)n1 | 4 | nt | -2 | -3.7 | 3%
CCCN(CCC)C(=O)Cn1c(=O)n(CCCCC(=O)NC2CCCC2)c(=O)c2ccccc21 | 2 | -18 | -4 | -8.6 | -7%
COc1ccccc1-n1c(=O)c2c3c(sc2n2c(SC)nnc12)CCC3 | nt | -22 | -2 | -0.2 | -2%
O=C(CSc1n[nH]c(-c2cccnc2)n1)Nc1ccccc1 | 5 | 31 | -12 | -1.2 | -3%

Going on with the list.
SMILES | Arbovirus inh | YopH inh | Mtb bLac sens | RecA intein inh | Mtb growth | others
Cc1ccccc1C(=O)N1CCc2cc(-c3nc(NC(=O)Cc4ccc5c(c4)OCO5)sc3C)ccc21 | -8 | -5 | 93 | 3.2 | 84%
CC(C)c1nc2sc3ccccc3c(=O)c2c(=O)n1Cc1ccccc1 | nt | nt | -4 | -1.1 | -7%
O=C(/C=C/c1ccccc1)c1ccoc1 | -1 | -36 | 85 | -6.6 | 1%
Oc1ccc(-c2csc(NCc3ccco3)n2)cc1 | 4 | -34 | -14 | 19 | -11%
CC(O)[C@H]1CNC(=O)C(=O)N1CCCCC1CCCCC1 (some centres undefined) | nt | nt | -9 | -2.0 | -11%
O=C(COc1ccc(Cl)cc1)NCCC1=CCCCC1 | 3 | -15 | 0 | 5.4 | -4%
Cc1[nH]c2ccccc2c1C(=O)CN1CCC(C(N)=O)(N2CCCCC2)CC1 | -4 | -20 | -17 | -6.1 | 5%
CC(=O)c1ccc(NC(=O)CSc2ccc3nnc(-c4ccccn4)n3n2)cc1 | nt | nt | 1 | 6.6 | nt
CCn1nc(C)c(/C=N/NC(=O)c2ccc3c(c2)c(C)c(C)n3Cc2ccccc2)c1C | -20 | -8 | 74 | 27 | nt
CCCc1c(C(=O)N/N=C/c2ccco2)nnn1-c1nonc1N | nt | nt | 3 | -0.9 | nt
COc1cccc(NC(=O)c2ccc(S(=O)(=O)N3CCCC3)cc2)c1 | nt | nt | -8 | -0.5 | nt
CC1=NN(c2ccccc2)C(=O)C1C(=O)c1ccc(Cl)cc1 (centres undefined) | -11 | -16 | ? | nt | nt
NC(=O)c1nn(CC(=O)Nc2ccc3c(c2)OCO3)cc1[N+](=O)[O-] | 3 | nt | -6 | nt | 5%
O=c1ccn(CCCBr)c(=O)[nH]1 | nt | nt | 3 | -0.5 | 0%
CCc1nnc(NC(=O)C2Cc3ccccc3CN2S(=O)(=O)c2cccs2)s1 (centres undefined) | -2 | -34 | 86 | 0.3 | ?
COc1cccc(C2NC(=O)NC(O)(C(F)(F)F)C2C(=O)c2cccnc2)c1OC (centres undefined) | 4 | -5 | -4 | 1.0 | 0% | Arbovirus inh repeat=5
NS(=O)(=O)c1ccc(NC(=O)C2COc3ccccc3O2)cc1 (centres undefined) | 1 | -12 | -8 | 0.4 | 1%
O=C(CCc1nc2ccccc2c(=O)[nH]1)OCc1ccccc1F | -11 | -36 | 7 | 0.1 | -12%
COc1cccc(NC(=O)NCc2c(-c3ccccc3)noc2C)c1 | nt | nt | 1 | 3.9 | -6%
O=C(Cc1c(C(=O)O)[nH]c2ccccc12)NC1CCCC1 | 20 | nt | 3 | 0.4 | -8%
CC(C)(C)c1ccc(/C=N/n2cnnc2)cc1 | -6 | nt | 25 | -1.6 | 2%
CC(C)NC(=S)Nc1ccc2[nH]c(=O)[nH]c2c1 | 2 | nt | -9 | -1.3 | 2%
COC(=O)CN(c1ccccc1C)S(C)(=O)=O | 4 | -13 | -3 | -0.6 | -16%
O=c1cc(-c2ccco2)oc2ccc(Cl)cc12 | -1 | -29 | nt | 0.6 | -8% | Arbovirus inh repeat=3
CC(C)n1nc(C(=O)NCCc2ccc(S(N)(=O)=O)cc2)c2ccccc2c1=O | 6 | -48 | 10 | 3.7 | 1%

Next section
SMILES | Arbovirus inh | YopH inh | Mtb bLac sens | RecA intein inh | Mtb growth | others
C=CCNC(=O)c1ccc2nc(-c3ccccc3)c(-c3ccccc3)nc2c1 | -14 | -4 | 11 | 0.9 | 3%
N#Cc1cc(C(=O)Cc2ccccc2)c[nH]1 | 2 | nt | -2 | -1.7 | -7%
NC(=Nc1ccc(Cl)cc1)c1ccccc1 | 5 | nt | 6 | -0.3 | -3%
COc1cc2c(cc1OC)CN(c1ncccc1[N+](=O)[O-])CC2 | nt | nt | -6 | -7.9 | nt
O=C(COC(=O)[C@@H]1CC(O)CN1S(=O)(=O)c1ccccc1[N+](=O)[O-])Nc1ccc2ccccc2c1 (some centres undefined) | 5 | -5 | 32 | 5.3 | 22%
Cc1cc(C(=O)NCCc2ccc(S(N)(=O)=O)cc2)c(C)o1 | nt | nt | 6 | -0.6 | nt
COc1ccccc1CNC(=O)c1n[nH]c2ccccc12 | nt | nt | 1 | 0.1 | -1%
O=C(NCC1OCCCN1S(=O)(=O)c1ccc(F)cc1)C(=O)NC1CCCC1 (centres undefined) | nt | nt | -2 | -2.4 | nt
CC(=O)c1c(C)nc2ccc([N+](=O)[O-])cc2c1-c1ccccc1 | nt | nt | -4 | 10 | nt
CCSc1nnc(C(N)Cc2ccccc2)o1 (centres undefined) | -1 | 6 | 8 | 0.7 | -6%
CC1=Nc2ccccc2N=C(NC(=O)CSC(=S)N2CCCCC2)C1c1ccccc1 (centres undefined) | nt | nt | -17 | nt | 17%
COc1cc2c(cc1OC)C(C)N(C(=O)c1cc3c(C)cc(C)cc3[nH]1)CC2 (centres undefined) | nt | nt | 71 | 7.8 | nt
O=C(N/C(=C\c1ccco1)C(=O)N1CCCC1)c1cccs1 | -5 | -26 | 0 | -1.1 | -4%
Cn1c(=O)cc(OCCCC(=O)NCc2ccc3c(c2)OCO3)c2ccccc21 | -7 | -25 | -1 | -2.8 | -5%
Clc1cccc(-c2ccc(/C=N/n3cnnc3)o2)c1 | -3 | -17 | -2 | 6.3 | 3%
NC(=O)COC(=O)c1ccc(Cl)c(S(=O)(=O)N2CCCCCC2)c1 | -2 | nt | -11 | 1.2 | -14%
COc1cccc(C2CC(c3ccc(Br)cc3)=NN2C(=O)c2ccncc2)c1OC (centres undefined) | -18 | nt | 10 | 28 | 53%
O=C(NCc1nc2ccccc2[nH]1)C1=C[C@H](C2CCCCC2)C[C@H](OCc2ccc(CO)cc2)O1 | 4 | nt | -7 | 3.9 | 18%
Cc1cc(=O)oc2c(C)c(OCC(=O)NCCc3ccc(S(N)(=O)=O)cc3)ccc12 | nt | nt | -7 | 3.4 | nt
Cc1noc(C)c1C(=O)Nc1ccc(F)cc1F | -3 | -7 | -2 | 1.7 | -12%
CCCS(=O)(=O)c1c(S(=O)(=O)CCC)c2ccc(C(N)=O)cn2c1C(=O)c1ccc(F)cc1 | 2 | nt | 0 | 3.3 | 0%
CC(C)Cc1nnc(NC(=O)CCC(=O)N2CCN(c3ccccc3F)CC2)s1 | nt | nt | 5 | -0.7 | nt
C=CCn1c(SCC(=O)NC(=O)NC2CCCC2)nnc1C1CCCCC1 | -1 | 6 | -2 | -0.5 | -7%
CCN(CC)C(=O)Cc1c(O)c2ccccc2[nH]c1=O | nt | nt | 10 | -6.9 | -2%
CN1CCC(=NNC(=O)C(=O)NCc2ccccc2)CC1 | 1 | -29 | 3 | -2.5 | 4%

Additional records follow:
SMILES | Arbovirus inh | YopH inh | Mtb bLac sens | RecA intein inh | Mtb growth | others
OC[C@H]1OC(O)[C@@H](O)[C@@H](O)[C@@H]1O (some centres undefined) | nt | nt | -1 | -0.9 | nt
CC(C(=O)NCCSCc1cccc(Cl)c1)N(c1ccccc1)S(C)(=O)=O (centres undefined) | nt | nt | -9 | 4.1 | nt
COc1ccc(C2=CC(=O)CCC2)cc1 | nt | nt | 0 | -0.4 | -12%
FC(F)(F)c1ccc(Oc2ccc3ccccc3c2Br)nc1 | 35* | -10 | -5 | 5.3 | 5%
CC1(C)C(N(O)C(=O)Nc2ccccc2)N(c2cccc(Cl)c2)C(=O)N1O (centres undefined) | 13 | -18 | -1 | nt | 2%
CCCCOc1ccc(C(=O)NCC(=O)N2CCN(C(=O)c3ccco3)CC2)cc1 | nt | nt | 0 | 0.7 | nt
COCCn1c(CN2CCC(Cc3ccccc3)CC2)nc2c1c(=O)n(C)c(=O)n2C | 7 | 9 | 2 | nt | 2%
Cc1cccc(N2CN(Cc3ccco3)CNC2=S)c1C | -3 | -24 | -2 | 0.7 | -5%
CC(C)(C)NC(=O)c1nc2nc(-c3ccccc3)cc(C(F)(F)F)n2n1 | -3 | -30 | 9 | 8.0 | 6%
Cc1ccc(-c2noc(C3CCCN(C(=O)c4cccc(F)c4)C3)n2)cc1 (centres undefined) | nt | nt | 7 | 4.2 | nt
CC(C)Cn1c(=O)c2c(nc3n2CCCN3CCc2ccccc2)n(C)c1=O | -5 | -8 | 17 | 3.4 | 4%
O=C(Nc1nnc(C2=COCCO2)o1)c1cccc(F)c1 | nt | nt | 95 | 1.9 | nt
O=C(CCc1nc2ccccc2c(=O)[nH]1)Nc1ccc(F)cc1 | 2 | -32 | -4 | 3.3 | 40%
Cc1cc(C(=O)CN2C(=O)c3cccc(N)c3C2=O)c(C)n1Cc1cccs1 | -31 | -17 | 3 | -218 | 6%
Cc1nn(CC(=O)NC2C(=O)N3C(C(=O)O)=C(CSc4nnnn4C)CSC23)cc1Br (centres undefined) | 4 | nt | 21 | -1.5 | -8%
